E coli growth = inhibitors of Escherichia coli growth; OD600, 23 h; active compounds read low; OD600 absorbance (test concentration not listed); actives 0.21% (n = 330,000);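 active means OD600 absorbance below the run mean of sample wells minus 3.6 SD, in any replicate, cut at about 0.56 in these data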;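 further: stock transfer was 300 nL into about 60 µL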
FGF22 binding = FGF22 (human) thermal shift binding; recombinant FGF22 thermal shift, SYPRO orange fluorescence; percent of sucrose octasulfate shift, DMSO zero; actives 1.5% (n = 340,000); AID 651658; Q9HCT0; calls only at 9.99 µM;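 active means melting point raised past a set limit in the mean and every replicate; three in four hits are not shown here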
Target sequence (Q9HCT0 whole entry, looked up): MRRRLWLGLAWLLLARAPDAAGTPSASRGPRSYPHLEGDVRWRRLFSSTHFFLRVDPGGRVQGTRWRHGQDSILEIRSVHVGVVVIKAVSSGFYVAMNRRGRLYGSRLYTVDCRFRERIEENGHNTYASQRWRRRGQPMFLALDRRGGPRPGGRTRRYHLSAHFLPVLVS
LANA-H2B inh = blocks KSHV LANA binding to histone H2A/H2B; cell-free LANA-H2A/H2B peptide, fluorescence polarization; actives 0.6% (n = 320,000); inhibition, % (no concentration beside the values); Q9QR71; in the data active means inhibition mostly above about 10%, no sharp cut-off; inactive means mostly below about 6.7%;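 further: stock transfer was 7.5 nL into about 10 µL; 0% = median of vehicle wells and 100% = median of positive control wells; one replicate is shown; the record names a cut of 25% in any replicate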
Beta2AR agonist = activates human beta-2 adrenergic receptor causing internalization; P07550; Am2.2-beta2AR cells, FAP receptor internalization, flow cytometry; reference of the scale not given here; response, % (concentration not given with the values); actives 0.43% (n = 340,000); AID 504454;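 active means response above a set limit, near 3 SD of response in nonfluorescent compounds, cut at about 42% in these data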;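 further: stock transfer was 100 nL into about 11 µL; a reference agonist was the positive control; negative values mostly stem from fluorescent compounds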
HNF4A DNA FP = change in binding of human HNF4 alpha to DNA. P41235. HNF4a-FITC DNA binding, fluorescence polarization, 1 h. activity change, % at 10 µM. actives 0.3% (n = 360,000). AID 1224865; in the data active means activity change above about 30%, passing the limit was not always enough;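 further: controls were the assay level and a saturating level of protein; the project sought stronger binding though the title names inhibitors; some compounds called inactive have numbers as strong as hits; positive values seem to mean higher polarization but the record does not say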
UCH37 inh = blocks the human deubiquitinase UCH37; purified proteasome/UCH37, Ub-AMC cleavage fluorescence; inhibition, % (test concentration not listed); actives 0.33% (n = 330,000); AID 588478;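 active means mean of two replicates above 20%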;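 further: 0% = compound-free wells with enzyme and 100% = wells lacking proteasome; stock transfer was 100 nL into about 20 µL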
Target sequence (Q9Y5K5 whole entry, looked up): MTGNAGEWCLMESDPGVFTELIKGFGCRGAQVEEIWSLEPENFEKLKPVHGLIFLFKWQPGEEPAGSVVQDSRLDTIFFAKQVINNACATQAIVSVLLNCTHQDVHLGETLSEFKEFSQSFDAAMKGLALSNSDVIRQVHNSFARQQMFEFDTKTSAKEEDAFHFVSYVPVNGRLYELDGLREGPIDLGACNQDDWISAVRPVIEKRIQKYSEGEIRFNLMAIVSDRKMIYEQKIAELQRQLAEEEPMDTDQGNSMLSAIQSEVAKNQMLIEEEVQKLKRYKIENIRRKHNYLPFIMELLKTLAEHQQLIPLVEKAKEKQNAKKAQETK
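Material: Human UCH37 enzyme supplied as purified proteasome complex | Schedule: 30 min compound-proteasome preincubation then 25 min substrate reaction, room temperature | Detection: AMC fluorescence from Ub-AMC cleavage, excitation 355 nm, emission 460 nm | Benchmarks: Wells without proteasome as full block, compound-free enzyme plus substrate as uninhibited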
ALR inh = blocks human ALR sulfhydryl oxidase activity | P55789 | purified ALR, DTT oxidation, H2O2 HRP-luminol luminescence | inhibition, % (no concentration beside the values) | actives 3.8% (n = 290,000);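 active means mean and each replicate at 75% or more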;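 further: stock transfer was 7.5 nL into about 7.5 µL; 0% = neutral wells and 100% = wells with inactivated enzyme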
Target sequence (P55789 whole entry, looked up): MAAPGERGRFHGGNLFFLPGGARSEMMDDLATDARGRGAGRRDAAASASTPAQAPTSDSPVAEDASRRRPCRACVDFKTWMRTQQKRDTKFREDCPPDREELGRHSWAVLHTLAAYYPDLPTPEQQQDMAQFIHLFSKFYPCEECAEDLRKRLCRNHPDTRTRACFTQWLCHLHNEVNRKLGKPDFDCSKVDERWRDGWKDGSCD
* = called active by the depositor; i = inactive; nt = not tested or not shown. Not all compounds are listed. The share of hits here may be higher or lower than overall.

SMILES	E coli growth	FGF22 binding	LANA-H2B inh	Beta2AR agonist	HNF4A DNA FP	UCH37 inh	ALR inh
O=C(Nc1ccccc1)C1=C[C@@H](c2ccc(C(F)(F)F)cc2)C[C@@H](OCc2ccc(CO)cc2)O1	nt	i	-5.2	-4	3.9	3.6	-10
COc1ccc(-c2cn(Cc3ccc(C(=O)NCc4ccc(C)cc4)cc3)c(C(C)N)n2)cc1 (stereo unspecified)	0.67	i	-0.3	12	4.1	-1.2	-12
CC(OC(=O)Cn1[nH]c(=O)c2ccccc2c1=O)C(=O)Nc1ccc(F)cc1Cl (stereo unspecified)	0.66	i	6.6	16	-1.5	2.1	-5
COc1ccc(CCNC(=O)Cn2cnc3c(nnn3Cc3ccccc3F)c2=O)cc1OC	0.68	i	-1.9	0	3.3	0.4	-4
COc1ccc(NC(=O)C2CC(c3ccc(OC)c(OC)c3)=NO2)cc1OC (stereo unspecified)	0.68	nt	-3.0	2	1.3	2.4	-36
Cc1ccc(S(=O)(=O)N2CCCC(C(=O)Nc3ccc(NC(=O)c4ccccn4)cc3)C2)cc1 (stereo unspecified)	0.73	nt	1.0	32	4.2	-0.1	-3
COC(=O)[C@H](Cc1ccccc1)NC(=O)C1(OC(C)=O)CC(OC(C)=O)C(OC(C)=O)C(OC(C)=O)C1 (stereo partly specified)	0.63	i	-2.3	-1	2.3	0.8	-13
CC(NC(=O)c1ccco1)c1ccc2c(c1)OCCO2 (stereo unspecified)	0.68	nt	3.7	7	3.4	3.8	-11
CCCCN(C(=O)c1ccc(C)cc1)c1c(N)n(CCC)c(=O)[nH]c1=O	0.71	i	-7.2	1	0.1	0.6	0
Cn1c(SCC(=O)NC(=O)NCc2ccccc2)nnc1C(F)(F)F	0.68	i	0.3	-7	0.7	1.6	nt
Cc1nc2ccc([N+](=O)[O-])cc2c(=O)n1Cc1ccc(Br)cc1	0.71	i	0.1	-1	-2.2	7.3	-19
Fc1ccccc1C(c1nnnn1Cc1ccc2c(c1)OCO2)N1CCN(Cc2ccccc2)CC1 (stereo unspecified)	0.7	nt	4.1	8	-1.4	3.2	2
CCCCN(CC)Cc1c(O)ccc2c3c(c(=O)oc12)CCC3	0.65	i	-0.2	1	1.2	i	nt
CCCNS(=O)(=O)c1ccc(CCC(=O)Nc2ccc3c(c2)OCCO3)cc1	0.71	i	2.0	-1	-3.5	1.2	nt
Cc1cc(C)nc(N2CCC(C(=O)NNC(=O)c3ccccc3)CC2)n1	0.7	i	-6.6	3	1.8	-5.0	-1
CN1CCN(S(=O)(=O)c2ccc(NC(=S)NC(=O)C3CC3)cc2)CC1	0.71	nt	6.7	0	2.5	4.6	14

Three compounds out of the list, sorted by length of the SMILES, falling.
SMILES	E coli growth	FGF22 binding	LANA-H2B inh	Beta2AR agonist	HNF4A DNA FP	UCH37 inh	ALR inh
Fc1ccccc1C(c1nnnn1Cc1ccc2c(c1)OCO2)N1CCN(Cc2ccccc2)CC1 (stereo unspecified)	0.7	nt	4.1	8	-1.4	3.2	2
CN1CCN(S(=O)(=O)c2ccc(NC(=S)NC(=O)C3CC3)cc2)CC1	0.71	nt	6.7	0	2.5	4.6	14
Cc1cc(C)nc(N2CCC(C(=O)NNC(=O)c3ccccc3)CC2)n1	0.7	i	-6.6	3	1.8	-5.0	-1

(more compounds)
SMILES	E coli growth	FGF22 binding	LANA-H2B inh	Beta2AR agonist	HNF4A DNA FP	UCH37 inh	ALR inh
Cc1n[nH]c(C)c1S(=O)(=O)N1CCc2ccccc21	0.74	nt	-0.4	-4	-1.6	-0.3	-4
COc1ccc([N+](=O)[O-])cc1NS(=O)(=O)c1cccc(C(=O)OC2CCOC2=O)c1 (stereo unspecified)	0.7	i	-2.5	-7	-4.0	4.9	-4
NNC(=O)c1ccc2[nH]c3c(c2c1)CCCC3	0.7	i	11	-1	3.3	-1.8	nt
Cc1nc2ccccc2c2oc(C(=O)N3CCN(c4ccc([N+](=O)[O-])cc4)CC3)cc12	0.72	i	1.3	51*	5.2	3.6	-8
CCc1nnc2sc(-c3ccc(NC(=O)c4ccc5c(c4)OCCO5)cc3)nn12	0.71	nt	-1.9	12	-1.4	-4.5	-6
CC(C)(C)c1ccc(C(=O)Nc2ccc(Oc3cccnc3)nc2)cc1	0.67	i	-5.4	1	1.9	3.2	1
CC(C)(C)OC(=O)NCc1ccc(NC(=O)c2nc[nH]c2C(=O)NCCCCNC(=O)c2[nH]cnc2C(=O)Nc2ccc(CNC(=O)OC(C)(C)C)cc2)cc1	nt	nt	-3.3	23	27	nt	1
O=C(O)c1[nH]c2ccccc2c1CC(=O)N1CCN(c2ccccc2)CC1	0.71	i	-1.7	-10	0.3	3.8	31
CCc1ccc(/C=C2/SC(=S)N(CCC(=O)NCCCN3CCOCC3)C2=O)cc1	0.71	i	-5.1	13	7.8	13	-6
COc1cccc(/C=N/NC(=O)CNC(=O)c2ccc(S(=O)(=O)N3CCOCC3)cc2)c1OC	nt	i	5.5	0	2.9	nt	-4
O=C(CN1C(=O)COc2ccccc21)NCCN1CCc2ccccc2C1	0.68	i	2.5	-1	-3.9	1.5	-6
COc1cccc(CC(=O)OCC(=O)N2CCN(c3ccc(F)cc3)CC2)c1	0.66	i	1.5	-1	-1.1	-0.6	16
NS(=O)(=O)c1ccc2nc(NC(=O)Nc3ccccc3F)sc2c1	0.65	i	2.5	1	8.9	1.1	-5
NC(=O)NC(=O)C(OC(=O)CCNS(=O)(=O)c1ccccc1)c1ccccc1 (stereo unspecified)	0.61	i	1.6	3	-0.1	-3.5	-5
Cc1c(NC(=O)C(C)OC(=O)COc2cccc3c2OC(C)(C)C3)c(=O)n(-c2ccccc2)n1C (stereo unspecified)	0.72	nt	-2.4	7	-0.9	-1.5	4
CCCCN(C)CCNC(=O)CCNC(=O)Cn1ccc2ccccc2c1=O	0.64	i	-0.2	3	-4.7	-0.9	-1
CC(=O)Nc1cc[n+](CC(=O)c2cccc([N+](=O)[O-])c2)cc1	0.69	i	-0.3	1	-0.1	0.0	-9
COc1ccc(C2NCCC3(O)CCCCC23)c(OC)c1OC (stereo unspecified)	0.7	nt	-3.9	-4	-1.2	5.4	-7
Cc1ccc(S(=O)(=O)N2CCN(C(=O)CCOc3cc(C)ccc3C)CC2)cc1	0.65	i	4.6	-1	-0.5	0.3	-22
Cc1ccc(NC(=O)C(C)S)cc1 (stereo unspecified)	nt	i	-4.3	2	-0.1	nt	nt
CC(C)C(NC(=O)c1cccc(S(=O)(=O)N2CCOCC2)c1)C(=O)NCCc1ccccn1 (stereo unspecified)	0.74	nt	1.7	-3	2.7	-3.6	1
Cc1ccc(CN2[C@@H]3c4ccccc4C[C@@H]3OCCS2(=O)=O)cc1	nt	i	1.9	-3	-3.3	0.8	1
C[C@H](NC(=O)c1ccccc1Cl)C(=O)OCC(=O)N1CCN(c2ccccc2)CC1	0.61	i	41*	1	-0.9	0.5	51
CN(C)S(=O)(=O)c1ccc2c(c1)nc(CCC(=O)Nc1ccc(N3CCOCC3)cc1)n2C	0.67	i	nt	-4	-1.5	3.6	17
Cc1nn(C)c(NC(=O)c2ccc([N+](=O)[O-])cc2)c1Cl	0.66	i	-2.1	-5	1.3	1.6	-9
Cn1cccc1C(=O)NC(=O)COC(=O)C12CC3CC(CC(O)(C3)C1)C2	0.75	nt	3.6	2	3.5	4.3	-4
COc1cc(O)c(C(CCN2CCN(c3ccccc3)CC2)c2ccc3c(c2)OCO3)c(OC)c1 (stereo unspecified)	0.72	i	-2.7	5	-0.6	3.1	-11
CCc1nc2c(c(=O)[nH]1)C(CC)(CC)Cc1ccccc1-2	0.66	i	10	6	-1.1	-24	-9
COc1ccc(NC2CCCN(C(=O)CSc3ccccc3)C2)cc1OC (stereo unspecified)	0.68	i	-1.0	4	-2.7	1.4	-16
COc1ccc(OC)c(Cc2nnc(CCC(=O)NC3CCCC3)o2)c1	0.72	i	-1.4	7	2.2	-0.5	-10
Cc1ccc2[nH]c(=O)c(CC(=O)O)c(-c3ccccc3)c2c1	0.69	i	4.5	-2	4.0	-12	-2
CC(C)[C@H](NC(=O)c1ccccc1F)C(=O)Nc1ccc(F)c(F)c1	0.69	i	0.1	-4	-3.9	-0.2	nt

By substructure: those above with an aryl thioether with sulfur outside any ring.
SMILES	E coli growth	FGF22 binding	LANA-H2B inh	Beta2AR agonist	HNF4A DNA FP	UCH37 inh	ALR inh
Cn1c(SCC(=O)NC(=O)NCc2ccccc2)nnc1C(F)(F)F	0.68	i	0.3	-7	0.7	1.6	nt
COc1ccc(NC2CCCN(C(=O)CSc3ccccc3)C2)cc1OC (stereo unspecified)	0.68	i	-1.0	4	-2.7	1.4	-16

Continuation.
SMILES	E coli growth	FGF22 binding	LANA-H2B inh	Beta2AR agonist	HNF4A DNA FP	UCH37 inh	ALR inh
O=C(COC(=O)CNC(=O)c1ccco1)Nc1ccccc1OC(F)F	0.65	i	0.5	2	3.7	0.0	-12
c1ccc(-c2noc(CN3CCc4sccc4C3)n2)cc1	0.67	i	nt	-14	0.2	-19	nt
COc1ccccc1CNC(=O)C(C)NS(=O)(=O)c1ccccc1 (stereo unspecified)	0.75	nt	1.1	-4	1.6	-0.3	4
O=C(COC(=O)[C@@H]1CCCN1S(=O)(=O)c1ccc(Cl)cc1)NC1CCS(=O)(=O)C1 (stereo partly specified)	0.59	i	-3.7	-1	1.6	2.0	-6
O=S(Cc1ccc(Cl)cc1)CC(O)COCc1ccc(Cl)cc1 (stereo unspecified)	0.65	nt	19*	0	-1.2	4.5	3
CCN(CC)CCN1C(=O)C(=O)/C(=C(/O)c2c(C)[nH]c(C(=O)OC)c2C)C1c1ccc(C)o1 (stereo unspecified)	0.72	i	-6.7	-5	-0.5	8.9	nt
COc1cc(S(=O)(=O)n2ccc(C)n2)c(OC)cc1Cl	0.7	nt	-0.6	17	0.9	4.1	0
O=C(CSc1nnc(-c2ccccc2)c(-c2ccccc2)n1)NCc1ccco1	0.73	nt	3.1	-6	1.7	4.1	30
COc1ccc(N(CC(=O)N/N=C/c2ccc(C(=O)O)cc2)S(=O)(=O)c2ccc(NC(C)=O)cc2)cc1	nt	i	-1.0	4	-0.4	nt	-8
O=C(CCCc1nc(-c2ccccc2Cl)no1)NC1CCCC1	0.7	i	nt	3	-0.8	0.2	-12
CC(=O)Nc1ccc(NCN2C(=O)C3C4CCC(C4)C3C2=O)cc1 (stereo unspecified)	0.74	nt	3.9	2	-1.5	1.3	85*
COc1ccc(NC(=O)c2oc3ccccc3c2NC(=O)C2CC2)cc1	0.74	nt	-0.6	9	-0.6	-12	35
O=C(CC1C(=O)N(c2ccc(F)cc2)C(=O)N1Cc1ccccn1)Nc1ccccc1 (stereo unspecified)	0.67	nt	1.5	1	-3.4	-1.1	30
COc1ccc(/C(N)=N/OC(=O)CN(C)S(=O)(=O)c2ccccc2)cc1	0.62	nt	nt	-3	-0.5	-1.1	nt
O=C(c1c[nH]c(=O)n(-c2ccccc2)c1=O)N1CCc2ccccc21	0.66	nt	0.3	21	-1.0	2.2	1
O=C(NCc1cccc(C(F)(F)F)c1)c1ccc(=O)[nH]c1	0.7	i	0.1	7	0.5	2.2	-5
O=C(NCCCCCCNC(=O)c1ccccc1O)c1ccccc1O	0.68	i	3.1	-7	-1.0	-31	-4
O=C(c1cc(O)c(O)c([N+](=O)[O-])c1)c1ccccc1F	0.7	i	0.8	12	-5.1	7.6	98*
Cc1nc(N[C@@H](Cc2ccccc2)C(=O)O)c2oc3ccccc3c2n1	0.71	nt	0.3	-1	4.3	1.4	1
O=C(NCc1ccco1)C1(c2ccc(Br)cc2)CCCC1	0.71	nt	-0.8	0	3.6	1.1	-3
O=C(Cc1ccccc1)NCCSCc1ccco1	0.69	i	0.2	2	-0.9	3.4	7

Quoted from the listing:
O=C(NCCCCCCNC(=O)c1ccccc1O)c1ccccc1O – HNF4A DNA FP = -1.0
O=C(NCc1ccco1)C1(c2ccc(Br)cc2)CCCC1 – LANA-H2B inh = -0.8
O=C(c1cc(O)c(O)c([N+](=O)[O-])c1)c1ccccc1F – LANA-H2B inh = 0.8
